# PKD1 kinase inh = inhibitors of human PKD1 kinase. inhibition, %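 (about 10 µM by stock and volumes)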. Q15139. PKD1 kinase fluorescence polarization assay. 200,000 compounds, 0.056% hits. AID 797;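 active = inhibition of 50% or more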;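 note: controls were vehicle for no effect and a reference inhibitor for full effect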
# GALR2 agonist = activates the human galanin receptor 2; GALR2-expressing cells, agonist activation read-out; 140,000 compounds, 0.48% hits; activation, %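 (tested at 5 µM)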; O43603;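 active = above mean plus 3 SD of all compounds, about 5% in these data, not always enough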;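 note: 0% = vehicle buffer wells and 100% = reference agonist at full effect; tested in CHO reporter cells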
# Target sequence (O43603 whole entry, looked up): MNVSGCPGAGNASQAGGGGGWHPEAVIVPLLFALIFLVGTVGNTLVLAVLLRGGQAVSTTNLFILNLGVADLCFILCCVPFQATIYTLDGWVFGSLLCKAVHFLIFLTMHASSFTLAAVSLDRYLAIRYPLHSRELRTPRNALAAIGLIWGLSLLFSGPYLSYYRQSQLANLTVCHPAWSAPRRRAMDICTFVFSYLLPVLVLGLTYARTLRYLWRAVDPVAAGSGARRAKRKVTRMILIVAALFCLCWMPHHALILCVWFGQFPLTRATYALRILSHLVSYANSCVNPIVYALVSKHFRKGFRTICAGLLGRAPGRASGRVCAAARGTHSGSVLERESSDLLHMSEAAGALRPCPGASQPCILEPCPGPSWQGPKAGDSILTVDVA
# INS promoter inh = TRM-6 insulin promoter activity inhibition. TRM-6 cells (human fetal islet line), insulin promoter-eGFP reporter, imaging; reporter expression induced with tamoxifen. inhibition, % at 2 µM. 130,000 compounds, 0.9% hits;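 active = inhibition above the mean plus 3 SD, with well images judged a real hit on visual review, cut at about 60% in these data, passing the limit was not always enough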
# HSV replic up = increases HSV replication in cells; HSV replication augmentation in cells, fold increase; maximum fold increase; 220,000 compounds, 0.005% hits;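 active = peak rise of 1.5-fold or more in the series; tested in PC3 cells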;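 note: first round at 10 µM; read as green reporter fluorescence; hits show the peak of a series up to 25 µM; 1 = signal of infected wells without compound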
# RGS16-Gao HTS = regulators of human RGS16-Galphao interaction; O15492+P09471; bead-based flow cytometry RGS16-Galphao binding, fluorescence; actives lie on both sides; binding response (% of control), % at 10 µM; 220,000 compounds, 0.38% hits; AID 1441;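 active = below 25% or above 175%, edge rows of some plates excepted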;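 note: Galphao activated by GDP with aluminum fluoride before binding; 100% = wells without compound and 0% = beads without RGS; some results beyond the cut were filed as inactive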
# INS promoter inh cell count = recorded beside INS promoter inh, whose call it bears; normalized cell count, %; measured here: cell count, toxicity; reference of the scale not given here;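 cells exposed to compound for 48 h; stained nuclei by imaging scaled within each plate; lower means fewer cells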
# HSV replic up primary fold = also measured in HSV replic up; calls as there; fold increase; compound at 10 µM; measured here: primary screen fold increase 10 uM; tested in PC3 cells;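 GFP signal in the first replicate; 1 = infected wells without compound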
# Active calls of the source: *; i = inactive; · = not tested or not shown.
# Letters – A = PKD1 kinase inh; B = GALR2 agonist; C = INS promoter inh; D = INS promoter inh cell count; E = HSV replic up; F = HSV replic up primary fold; G = RGS16-Gao HTS
mol: CN(C)c1nc(Cl)nc(N(C#N)CCOc2ccccc2)n1
  A: 3	B: ·	C: -50	D: 95	E: i	F: 0.69	G: 99

mol: NC(=O)C1CCCN(C(=O)c2ccc(Cl)cc2)C1 (configuration not stated)
  A: 1	B: -3.8	C: 50	D: 115	E: i	F: 0.72	G: 99

mol: O=C(O)CCc1ccc(-c2ccccc2)o1
  A: 3	B: -2.3	C: -41	D: 69	E: i	F: 0.99	G: 95

mol: O=C(O)CCCN1C(=O)C2C3CC(C2C1=O)C1C(c2ccccc2)c2sc(=O)n(-c4ccccc4)c2SC31 (configuration not stated)
  A: 5	B: ·	C: ·	D: ·	E: i	F: 0.95	G: 101

mol: COC(=O)CC1(C(=O)OC)Oc2ccc(Br)cc2C(=O)N1c1cc(Cl)c(Cl)cc1Cl (configuration not stated)
  A: ·	B: ·	C: ·	D: ·	E: i	F: 0.84	G: 97

mol: Cc1nn(C)c(C)c1NS(=O)(=O)c1ccccc1
  A: -16	B: -0.2	C: ·	D: ·	E: i	F: 1	G: 105

mol: C=CCc1ccc(OCC(O)CO)c(OC)c1 (configuration not stated)
  A: -1	B: -1.5	C: -55	D: 46	E: ·	F: ·	G: 104

mol: c1ccc(NCC2OCc3ccccc3CO2)cc1
  A: -6	B: -1.0	C: 26	D: 118	E: i	F: 1	G: 98

mol: COc1ccc2c(c1)c1c3n2CCN(C)C3=NCC1
  A: 0	B: -0.2	C: ·	D: ·	E: i	F: 0.99	G: 104

mol: CC(=O)c1sc(NC(=O)c2c(F)cccc2F)nc1C
  A: -6	B: -3.7	C: 23	D: 53	E: i	F: 1	G: 100

mol: Cc1ccc(N(CCCCN2C(=O)c3ccccc3C2=O)C(=O)c2cccc([N+](=O)[O-])c2)cc1
  A: -10	B: -0.8	C: -39	D: 110	E: i	F: 0.85	G: 98

mol: CCCCN(CC)CCCNC(=O)c1ccc(CSc2nc3ccncc3[nH]2)cc1
  A: -7	B: ·	C: -33	D: 69	E: i	F: 1	G: 105

mol: Cc1cc(C)c2c(=O)[nH]n(C3CC(C)N(C)CC3C)c2n1 (configuration not stated)
  A: 2	B: -4.0	C: ·	D: ·	E: i	F: 0.87	G: 105

mol: C[N+]12CCCCC1[C@@H](CO)CCC2 (some centres not stated)
  A: ·	B: ·	C: ·	D: ·	E: i	F: 0.94	G: 99

mol: CCC(=O)N1C(=O)C2(Nc3ccccc3N2)c2ccccc21
  A: -7	B: ·	C: -8	D: 85	E: i	F: 1.1	G: 101

mol: CCN(CC)C(=O)CSc1nnc([C@@H](NC(=O)OC(C)(C)C)C(C)C)o1
  A: -11	B: -1.7	C: -23	D: 77	E: i	F: 0.97	G: 100

mol: CN(C)c1c(F)cc(C(=O)NCc2ccccc2)cc1F
  A: ·	B: ·	C: ·	D: ·	E: i	F: 1	G: 100

mol: O=C(NCCN1CCCCCC1)C1CCCN1S(=O)(=O)c1cccc2nsnc12 (configuration not stated)
  A: ·	B: ·	C: ·	D: ·	E: i	F: 1	G: 104

mol: CCCOC(=O)c1ccc(-c2ccc(C=O)o2)cc1
  A: -9	B: -0.3	C: 41	D: 96	E: i	F: 1	G: 103

mol: COc1ccc(N2CCN(CCNC(=O)c3c(C)cc(=O)oc3C)CC2)cc1
  A: -2	B: -2.8	C: -6	D: 102	E: i	F: 0.95	G: 102

mol: Cc1c(/C=N\NC(=O)c2cc3ccccc3o2)c2ccccc2n1C
  A: -9	B: ·	C: -167	D: 33	E: i	F: 0.73	G: 101

mol: COc1ccc(OC)c(NC(=O)C2C3CC4OC(=O)C2C4C3)c1 (configuration not stated)
  A: -9	B: -2.6	C: 47	D: 85	E: i	F: 0.91	G: 102

mol: COC(=O)c1ccc(S(=O)(=O)NCc2ccc(OC)cc2)n1C
  A: ·	B: ·	C: ·	D: ·	E: i	F: 1	G: 86

mol: CC(=O)Nc1c(C(=O)N2CCOCC2)sc2nc3c(cc12)COC(C)(C)C3
  A: -6	B: -2.9	C: -48	D: 144	E: i	F: 0.76	G: 93

mol: CC(CN1CCOCC1)OC(=O)c1cccs1 (configuration not stated)
  A: -1	B: -1.7	C: -257	D: 103	E: i	F: 0.95	G: 100

mol: Cn1cnnc1SCC(=O)Nc1ccccc1
  A: -4	B: -1.4	C: ·	D: ·	E: i	F: 1	G: 106

mol: CCn1c(=O)c2cc(C(=O)N3CCN(C)CC3)sc2c2ccccc21
  A: -10	B: 0.2	C: ·	D: ·	E: i	F: 0.98	G: 107

mol: C=CCSc1nc2c(cnn2-c2ccc(C)c(C)c2)c(=O)[nH]1
  A: 5	B: -4.0	C: ·	D: ·	E: i	F: 0.82	G: 111

mol: COCCNc1nc(C)cc(-c2cc(C(=O)NC3CCCC3)on2)n1
  A: ·	B: ·	C: ·	D: ·	E: i	F: 0.93	G: 108

mol: COc1ccc(N2CCN(Cc3nc4ccsc4c(=O)[nH]3)CC2)cc1
  A: -9	B: -2.8	C: -56	D: 78	E: i	F: 1.2	G: 104

mol: Cc1cc(N/C=C/C(=O)c2ccc(Br)cc2)no1
  A: -2	B: 0.2	C: -450	D: 51	E: i	F: 0.66	G: 74

mol: COc1cccc(C(=O)NC(=S)Nc2ccc(N(C)C)cc2)c1
  A: 4	B: -0.2	C: 9	D: 135	E: i	F: 0.94	G: 99

mol: Cc1n[nH]c(C)c1CS(=O)(=O)c1ccccc1
  A: -2	B: ·	C: -118	D: 18	E: i	F: 0.93	G: 123

mol: COc1cc(/C(C)=N/N2CCOCC2)cc(OC)c1OC
  A: 4	B: ·	C: 0	D: 107	E: i	F: 0.91	G: 62

mol: COC(=O)CSc1nnc(CNc2ccc(F)cc2)o1
  A: -4	B: -0.3	C: ·	D: ·	E: i	F: 0.87	G: 102

mol: O=C(NCc1cccs1)C1CCCN(S(=O)(=O)c2ccc3c(c2)OCO3)C1 (configuration not stated)
  A: -10	B: -2.3	C: ·	D: ·	E: i	F: 1.1	G: 101

mol: CC1CN(C(=S)Nc2ccccc2)N(c2ccccc2)C1 (configuration not stated)
  A: 0	B: ·	C: 17	D: 53	E: i	F: 0.9	G: 104

mol: Cc1ccc(N2C(S)=C(C#N)C(=O)NC23CCCCC3)cc1
  A: -4	B: -1.5	C: 23	D: 85	E: i	F: 0.98	G: 104

mol: Cc1csc(NC(=O)CSc2nnc(C)s2)n1
  A: -8	B: -1.3	C: 15	D: 121	E: i	F: 0.88	G: 86

mol: Cc1ccc(N2C(=O)N(CC(=O)Nc3ccc(C)c(C)c3[N+](=O)[O-])C(=O)C2C)cc1 (configuration not stated)
  A: 0	B: ·	C: ·	D: ·	E: i	F: 0.9	G: 104

mol: COc1ccc(C2CC2/C(=N/OC(=O)c2cccs2)c2ccccc2)cc1 (configuration not stated)
  A: 2	B: 0.8	C: ·	D: ·	E: i	F: 0.78	G: 103

mol: COc1ccc(C(=O)COc2ccccc2N2C(=O)C3C4C=CC(C4)C3C2=O)cc1 (configuration not stated)
  A: -7	B: -3.5	C: -25	D: 104	E: i	F: 1.1	G: 99

mol: NS(=O)(=O)c1ccc2ccccc2c1
  A: ·	B: ·	C: ·	D: ·	E: i	F: 0.98	G: 99

mol: CCN(CC)S(=O)(=O)c1cc([N+](=O)[O-])ccc1NNC(=O)Nc1ccc(Cl)c(Cl)c1
  A: -10	B: -2.2	C: -22	D: 88	E: i	F: 1.1	G: 99

mol: c1csc(-c2csc3ncnc(NCCCN4CCOCC4)c23)c1
  A: 2	B: -1.2	C: -59	D: 90	E: i	F: 0.99	G: 103

mol: OCCN(Cc1ccccc1)Cc1ccc(F)c(F)c1
  A: 0	B: -0.3	C: 9	D: 102	E: i	F: 0.8	G: 98

mol: COc1ccc(-n2c(SCc3nnc(-c4ccccc4)o3)nnc2-c2ccccc2)cc1
  A: -11	B: -2.0	C: -42	D: 111	E: i	F: 0.9	G: 101

mol: Cc1cccc(N(C(=O)CCC(=O)Nc2cc(C)on2)C(C(=O)NC2CCCC2)c2ccncc2)c1 (configuration not stated)
  A: -11	B: -1.3	C: ·	D: ·	E: i	F: 1	G: 115

mol: CCc1cc2c(=O)n(-c3ccccc3)c(=S)[nH]c2s1
  A: -5	B: -2.7	C: 17	D: 159	E: i	F: 0.98	G: 105

mol: CC(C)c1ccc(NC(=O)N2CCN(S(=O)(=O)c3ccccc3)CC2)cc1
  A: -5	B: ·	C: ·	D: ·	E: i	F: 0.89	G: 107

# Next compounds
# Letters – A = PKD1 kinase inh; B = GALR2 agonist; C = INS promoter inh; D = INS promoter inh cell count; E = HSV replic up; F = HSV replic up primary fold; G = RGS16-Gao HTS
mol: CC(=O)Nc1cccc(OCc2ccc(F)cc2)c1
  A: -1	B: ·	C: -141	D: 32	E: i	F: 1.1	G: 100

mol: O=C(Cc1ccc(Cl)cc1)Nc1ncccn1
  A: -2	B: ·	C: ·	D: ·	E: i	F: 0.83	G: 108

mol: COC(=O)c1cc(OC)c(OC)cc1NC(=O)C(C)Sc1ccc(C)cc1 (configuration not stated)
  A: -2	B: -2.0	C: -29	D: 104	E: i	F: 0.98	G: 115

mol: Nc1nnc(CSCc2cccc(Br)c2)s1
  A: -5	B: ·	C: ·	D: ·	E: i	F: 0.94	G: 98

mol: O=C(NNC(=S)NC(=O)C12CC3CC(CC(C3)C1)C2)c1ccncc1
  A: -8	B: -1.3	C: ·	D: ·	E: i	F: 0.85	G: 104

mol: COc1ccc2cnnc(SCC(=O)Nc3ccc(C(C)=O)cc3)c2c1OC
  A: -7	B: 1.3	C: -8	D: 64	E: i	F: 1	G: 102

mol: Cn1c(=O)c2c(SCc3ccccc3)nc(-c3ccco3)nc2n(C)c1=O
  A: -3	B: -0.6	C: -10	D: 129	E: i	F: 0.84	G: 98

mol: COc1ccc(N=Cc2nc(-c3ccccc3)oc2OC(=O)c2ccccc2)cc1
  A: -5	B: 0.5	C: 50	D: 103	E: i	F: 0.99	G: 99

mol: Cc1[nH]n(-c2cccc3ccccc23)c(=O)c1/C=N/c1sc2c(c1C#N)CCC2
  A: -4	B: -1.4	C: -3	D: 90	E: i	F: 1	G: 93

mol: Cc1cc(C)c(COc2ccc(/C=N/n3c(C)n[nH]c3=S)cc2)c(C)c1
  A: -2	B: 1.1	C: -10	D: 78	E: i	F: 1	G: 91

mol: O=C(CSCc1ccccn1)Nc1ccccc1
  A: -12	B: 0.0	C: 15	D: 91	E: i	F: 0.98	G: 105

mol: O=C1NC(=Nc2cccnc2)S/C1=C/c1ccc(F)cc1
  A: ·	B: ·	C: ·	D: ·	E: i	F: 0.82	G: 104

# From PubChem BioAssay
